# Source: PubChem (several laboratories)
# RN4220 kill: kills Staphylococcus aureus RN4220 | AID 1259311 | inhibition, % (concentration not given with the values) | actives 0.33% (n = 330,000) | S. aureus RN4220 growth, OD600, 16 h;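 active = z-score of -3 or lower and OD600 up to 0.18 on both plates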;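 also: plate controls were untreated cells for no effect and reference antibiotic for full effect; stock transfer was 100 nL into about 80 µL; one replicate is shown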
# PrP UTR inh: inhibition of PrP 5' UTR reporter expression | actives 0.35% (n = 340,000) | cell-based PrP 5' UTR mRNA reporter, plate reader | inhibition, % (concentration not given with the values) | AID 488862;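 active = every replicate at 50% or more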;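 also: 0 = median of the neutral control wells; tested in H4 reporter cells; numbers are from one replicate; inactives centre near -14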
# Bead autofluor: flagged as autofluorescent in microsphere protease counterscreen | compound autofluorescence counterscreen, microsphere flow cytometry; hits give high values | fluorescence intensity (no concentration beside the values) | actives 3.1% (n = 360,000);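 active = at least 3 SD above the mean of all compounds, about 16000 in these data; inconclusive = too few beads counted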;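 also: 100 nL of 1 mM stock went into each well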
# Mtb hypoxia rep: inhibitors of hypoxia-regulated fluorescent reporter in Mycobacterium tuberculosis. M. tuberculosis hypoxia-regulated fluorescent reporter, fluorescence. fluorescence inhibition, % (test concentration not listed). actives 0.1% (n = 300,000);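 active = 35 to 45% if threefold the growth effect, above 45% if 1.5-fold the growth effect; inactive = the rest, general growth blockers included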;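 also: wells of about 50 µL received 100 nL stock; 0% = vehicle wells and 100% = reference inhibitor wells; whole bacteria with a GFP reporter of the hypoxia response; strong numbers were not always called active; many hits fall short of the cut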
# ugtP null kill: kills S. aureus RN4220 lacking UgtP; S. aureus RN4220 ugtP deletion, OD600 growth, 16 h; some inactives read as strong as hits; growth inhibition, % (no concentration beside the values); actives 0.54% (n = 330,000);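 active = z-score under -3 and OD600 up to 0.15 on both plates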;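 also: plate controls were untreated wells for no effect and antibiotic for full effect; wells of about 80 µL received 100 nL stock; the first replicate is given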
# BJeLR lethal: kills HRASV12-expressing BJeLR cells | BJeLR (HRASV12) viability, CellTiter-Glo ATP luminescence, 48 h; reference of the scale not given here | AID 1554 | inhibition, % (test concentration not listed) | actives 0.17% (n = 300,000);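 active = replicate mean above 50%; inconclusive = above 50% but judged a plate artefact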;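 also: 50 nL library stock added to about 25 µL; numbers are from one replicate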
# Mtb hypoxia rep growth: second read-out of Mtb hypoxia rep, no call of its own (marks repeat the call); growth inhibition, %; measured here: M. tuberculosis growth (absorbance);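 0% = vehicle and 100% = reference antibiotic; read after six days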
# Numbers without * were called inactive; ? = inconclusive; . = no result given.
SMILES,RN4220 kill,PrP UTR inh,Bead autofluor,Mtb hypoxia rep,Mtb hypoxia rep growth,ugtP null kill,BJeLR lethal
COc1ccc(N2CCN(C(c3cccs3)C(C)NC(=O)c3ccc4c(c3)OCO4)CC2)cc1 (stereo not drawn),0.5,-14,2512,7,9,17,-10
Cc1cc(C)cc(OCC(=O)OCC(=O)NC2CCCCCC2)c1,8.1,-4,4228,14,5,6,.
Cc1cc(=O)oc2cc(OCc3ccc(C(=O)OCC(=O)NC4CCS(=O)(=O)C4)cc3)ccc12 (stereo not drawn),4.4,-37,4550,-1,1,16,11
O=C(/C(C=Nc1ccc(F)cc1)=C(/O)c1ccco1)C(F)(F)F,6.2,-138,2184,12,11,4,-5
Cc1ccc(S(=O)(=O)N(C)C)cc1NS(=O)(=O)c1ccc(Cl)s1,17,14,8028,4,5,-7,14
CCN1CCN(c2ncnc3c2nnn3Cc2ccccc2)CC1,0.7,-11,3080,.,.,-1,4
Cc1ccc(-c2csc(NC(=O)c3ccc([N+](=O)[O-])o3)n2)cc1,.,-6,4423,.,.,.,-15
COc1ccc(C=NOC(=O)Nc2ccc(Cl)cc2)c(OC)c1,6.3,.,.,5,4,-11,.
CCc1cccc(N=c2c([N+](=O)[O-])nn(-c3ccc4c(c3)OCCO4)n2O)c1,-3.9,0,2491,-7,5,2,-7
CC(=O)n1c(=O)oc2ccccc21,5.5,-21,4064,-2,5,4,6
CCOc1ccc(CCNC(=O)C2CC(=O)N(c3ccccc3OCC)C2)cc1OCC (stereo not drawn),1.9,-20,6097,5,3,5,0
CCSc1ncc(/C=N/Nc2ccc([N+](=O)[O-])cc2)n1C,.,-74,2785,.,.,.,0
Cc1ccc(C2=NNC(=O)C(P(=O)(c3ccccc3)c3ccccc3)C2)cc1 (stereo not drawn),-2.8,-29,4339,-6,4,2,-7
COC(=O)c1ccc(NC(=O)CN(Cc2ccc(Cl)cc2)S(C)(=O)=O)cc1,-2.0,-7,14096,-3,4,-7,-6
CC(C)(C)NC(=O)CN(C(=O)CN1C(=O)C(=O)c2ccccc21)C(C)(C)C,2.8,-18,3170,14,7,6,-10
COc1cc(CSc2nc(-c3ccccc3)cc(=O)[nH]2)cc(OC)c1,2.8,-8,.,-10,-13,-22,-4
COc1ccc(C(=S)N2CCN(C)CC2)cc1,0.2,-16,5461,.,.,6,8
O=C(COC(=O)C1CCN(c2ccc(C(F)(F)F)cn2)CC1)c1ccccc1,4.4,-7,4382,13,11,16,-1
O=C(O)CC(CC(=O)Nc1ccc2ccccc2n1)c1ccccc1 (stereo not drawn),3.7,-16,6109,-4,3,3,-5
O=C(NC(=S)Nc1ccccn1)c1ccco1,5.4,-46,2489,1,3,4,-8
CC(=O)Nc1nc2cc([N+](=O)[O-])ccc2s1,4.3,-19,3717,11,10,1,.
Cc1cc(C=C(C#N)C(=O)Nc2ccccc2)c(C)n1-c1cccnc1,6.0,.,.,5,8,-12,.
CC(C)(C)CC(C)(C)NC(=O)/C=C/C(=O)O,2.8,-4,3417,2,-5,6,7
C/C(=N\Nc1nc(C)cc(C)n1)c1ccc(N2CCOCC2)cc1,.,-33,4089,.,.,.,-2
COc1ccc(OC)c(NC2=NC3(CCCCC3)N=C(N)N2)c1,2.6,-13,8301,1,1,7,-15
O=C(NC1CCCCC1)C(c1ccc2ncccc2c1)N(Cc1ccccc1)C(=O)c1ccc2c(c1)OCCO2 (stereo not drawn),1.3,1,5565,9,12,3,-6
COc1cc(OC)c(OC)cc1CN1CCN(S(=O)(=O)c2ccc(F)cc2)CC1,2.6,-29,3977,8,15,0,3
N#Cc1c(-c2ccc(Cl)cc2)nc2n(c1=O)CCCS2,5.2,-21,7815,3,0,3,-3
CC(C)CNC(=O)Cn1c(=O)c2c(ncn2CC(C)C)n(Cc2ccccc2)c1=O,2.6,-50,3863,6,7,7,0
O=C(CSc1nc2ccccc2c(=O)n1-c1ccccc1)NCc1ccc2c(c1)OCO2,0.1,-33,7204,6,3,-4,-7
Cc1noc(C(=O)Nc2c(C)n(C)n(-c3ccccc3)c2=O)c1Cl,4.4,-14,5970,6,3,14,4
CCN(CC)CCCN=Cc1c(O)n(Cc2ccccc2)c(=O)c2ccccc12,-4.1,-14,2579,.,.,-4,8
Cc1ccccc1C1c2[nH]c3ccccc3c2CCN1CCCn1cccn1 (stereo not drawn),-1.7,-13,4808,-2,-20,-2,10
CC(C)C[C@H](NC(=O)[C@H](Cc1ccccc1)n1c(=O)[nH]c2ccccc2c1=O)C(=O)N1CCC(C(=O)O)CC1,-1.3,-29,3882,.,.,-5,0
Cc1ccnc(NS(=O)(=O)c2ccc(NS(=O)(=O)c3ccc(Br)cc3)cc2)n1,3.4,-7,5923,5,5,-10,-3
CN1CCN(c2ccc(C=O)cc2)CC1,-0.2,-3,3554,.,.,5,1
CC(=O)Nc1ccc(NC(=O)COC(=O)Cc2cccs2)cc1,-0.4,-13,2407,.,.,6,5
COC(=O)CC[C@@H](C(=O)O)N1C(=O)c2ccccc2C1=O,4.1,-16,3493,.,.,6,-8
COc1ccc(NS(=O)(=O)c2ccc(NN=Cc3ccc(N4CCOCC4)cc3)c([N+](=O)[O-])c2)cc1,2.1,.,.,16,-5,-16,.
O=C(c1ccc(Br)cc1)N1CCC(C(=O)N2CCN(Cc3ccccc3)CC2)CC1,-0.2,-2,5942,3,6,-3,7
Cc1nnc(N(C(=O)c2cnccn2)c2ccccc2)s1,5.0,-21,3628,15,7,10,9
COc1ccc(S(=O)(=O)N2CCOC23CCN(S(=O)(=O)c2cccs2)CC3)cc1,2.7,-5,?,5,10,-1,3
Brc1ccc2c(c1)CN1CCCC1=N2,.,2,3771,.,.,.,-6
CCOC(=O)c1c(NC(=O)COc2cccc3c2CCN(Cc2ccc(F)cc2)C3=O)sc2c1CCC2,1.3,.,.,8,3,0,-1
COC(=O)Cn1cc(C(=O)C(F)(F)F)c2ccccc21,2.6,-3,4341,5,-4,0,10
O=C(COC(=O)c1ccc(Cl)c(S(=O)(=O)N2CCCC2)c1)NCc1ccccc1,4.3,-16,3645,11,9,10,.
Cc1ccc(-c2onc3ccc(Cl)cc23)cc1,14,-17,9432,10,10,15,17
COc1ccc(CN(C)C(=O)c2cc(-c3ccc(OC)c(OC)c3)nc3ccccc23)c(OC)c1,3.5,-4,5500,2,-1,19,-9

# Part of the list above, with two lines to a compound.
# Values run as follows: RN4220 kill	PrP UTR inh	Bead autofluor	Mtb hypoxia rep	Mtb hypoxia rep growth	ugtP null kill	BJeLR lethal
- Cc1cc(C)cc(OCC(=O)OCC(=O)NC2CCCCCC2)c1
  8.1	-4	4228	14	5	6	.
- Cc1cc(=O)oc2cc(OCc3ccc(C(=O)OCC(=O)NC4CCS(=O)(=O)C4)cc3)ccc12 (stereo not drawn)
  4.4	-37	4550	-1	1	16	11

# Further records
SMILES,RN4220 kill,PrP UTR inh,Bead autofluor,Mtb hypoxia rep,Mtb hypoxia rep growth,ugtP null kill,BJeLR lethal
COc1ccc(C=NNC(=O)c2cc3c(ccc4ccccc43)o2)cc1O,3.2,.,.,-3,12,-10,.
O=C(C1=C[C@@H](c2coc3ccccc3c2=O)C[C@@H](OCCCCO)O1)N1CCN(Cc2ccccc2)CC1,.,4,3018,.,.,.,-1
CCOC(=O)Nc1cc(N)ncn1,2.1,-18,3872,5,6,1,.
CCOc1ccc(NC(=O)CN(C)C(=O)C2(c3ccccc3)CC2)cc1OCC,1.8,-11,6050,-3,4,0,2
COc1ccc(C2(C)NC(=O)N(CC(=O)Nc3ccc(Br)c(C)c3)C2=O)cc1OC (stereo not drawn),-2.6,5,5549,-9,-3,-2,0
CCCCCC/C(=N\NS(C)(=O)=O)c1ccccc1,.,-28,3711,.,.,.,9
COC(=O)c1ccccc1NC(=S)NC(=O)C1CC1,5.8,-37,10772,6,8,19,-1
COc1ccc(S(=O)(=O)Nc2nc3ccccc3nc2NCC2CCCO2)cc1 (stereo not drawn),4.9,-7,3654,15,-1,-4,0
COc1ccc(C(=O)NCc2nnc(SCC(=O)Nc3cc(C)cc(C)c3)o2)cc1OC,0.2,-17,4673,.,.,-3,-3
O=C(CN1C(=O)C2CCCCC2C1=O)Nc1cccc(C(F)(F)F)c1 (stereo not drawn),1.3,-22,3658,-1,3,5,.
O=C(CN1CCOCC1)Nc1ccc(Br)cc1,2.8,-3,3726,5,1,4,5
CCn1c(Cc2ccc(OC)cc2)nc2ccccc21,2.8,0,3379,11,-1,0,-8

# Structures listed so far containing a tert-butyl group (2):
SMILES,RN4220 kill,PrP UTR inh,Bead autofluor,Mtb hypoxia rep,Mtb hypoxia rep growth,ugtP null kill,BJeLR lethal
CC(C)(C)NC(=O)CN(C(=O)CN1C(=O)C(=O)c2ccccc21)C(C)(C)C,2.8,-18,3170,14,7,6,-10
CC(C)(C)CC(C)(C)NC(=O)/C=C/C(=O)O,2.8,-4,3417,2,-5,6,7

# (continued)
SMILES,RN4220 kill,PrP UTR inh,Bead autofluor,Mtb hypoxia rep,Mtb hypoxia rep growth,ugtP null kill,BJeLR lethal
CCOc1ccc(/C=C2/Sc3ccc(C(=O)N4CCN(C(=O)c5ccco5)CC4)cc3N(C)C2=O)cc1OC,4.8,.,.,-2,8,15,4
COc1ccc(-n2nc(C(=O)NCC(=O)N3CCC4(CC3)OCCO4)c3ccccc3c2=O)cc1OC,1.7,-11,3150,1,0,0,-4
NC(=O)c1c(NC(=O)Cn2cc([N+](=O)[O-])cn2)sc2c1CCCC2,10,-18,4578,7,-1,6,-1
O=C(NCc1ccccn1)c1ccc2ccccc2n1,-5.6,-19,6163,8,17,-13,1
O=S1(=O)c2cccc3cccc(c23)N1Cc1nnc(-c2ccccc2Br)o1,-1.2,-10,4446,-4,3,7,2
Cc1oc(-c2cccs2)nc1CN1CCN(CC(C)C)C(CCO)C1 (stereo not drawn),1.8,-14,2575,16,9,3,2
CN(CC(=O)Nc1cccc(F)c1)CC(=O)Nc1ccccc1Oc1ccccc1,1.9,-24,3792,7,-1,-7,0
CCc1ccc2[nH]c3nc(N/N=C/c4cccc(O)c4)nnc3c2c1,.,-7,4043,.,.,.,-4
O=C(c1ccncc1)N1CCN(c2cccc(C(F)(F)F)c2)CC1,3.2,-10,3072,10,12,5,4
CN1C(=O)C(Cc2cccc3ccccc23)C(=O)N(C)C1=O,8.0,-26,9144,9,11,-6,3
COc1cc(-c2nc3ccccn3c2NCc2ccccc2)ccc1SC1CCCCC1,3.1,-8,3729,3,8,-19,8
CCOC(=O)c1ccc(NC(=O)c2cc(OC)c(OC)c(OC)c2Br)cc1,1.4,-21,2095,0,-3,-4,-5
COc1ccc(S(=O)(=O)Nc2cc(C)c(O)c(S(=O)(=O)c3ccccc3)c2)cc1,0.3,-18,5579,-10,1,-1,-1
CCOc1ccc(/C=C/c2nc(C#N)c(NCCCOC)o2)cc1,-3.5,-13,3783,2,17,16,4
CC(=O)c1cnc2cc(-c3ccccc3)nn2c1C,4.7,-97,7963,5,10,-6,-10
Cc1ccc2nc(NC(=O)CSCC(=O)OCC(=O)c3ccc(Br)cc3)sc2c1,.,20,3840,.,.,.,-3
O=C(OCCOCCN=C1NS(=O)(=O)c2ccccc21)C1CC(=O)N(c2ccccc2)C1 (stereo not drawn),-10,-30,2998,19,4,-7,-6
CC(=O)Nc1ccc(S(=O)(=O)NNC(=O)CCC(=O)Nc2cc(C)ccc2C)cc1,1.0,-1,2127,-4,13,3,13
CC(C)C1Cc2c(C#N)c(N)sc(=S)c2CO1 (stereo not drawn),2.3,1,4054,7,4,4,12
O=C(CSc1nc2ccc([N+](=O)[O-])cc2s1)NCC1CCCO1 (stereo not drawn),1.5,-17,5766,12,14,8,-6
O=C(Cc1ccccc1)Nc1cccc(N2C(=O)C=CC2=O)c1,3.7,-1,2600,-17,7,4,-19
COC(=O)Cn1ccc2cc(S(=O)(=O)N3CCCCC3)ccc21,1.0,-16,?,-3,10,1,-2
Cc1cc(=O)oc2cc(Oc3ccc([N+](=O)[O-])cc3[N+](=O)[O-])ccc12,0.1,-23,2459,6,10,-4,1
O=C(CSc1nc(-c2ccco2)cc(C(F)(F)F)n1)NN1CCOCC1,3.4,-18,3274,3,13,-2,1
COC(=O)NCc1cccc(CNC(=O)OC)c1,4.2,0,2096,1,-6,2,12
COc1ccc(Cn2c(O)c(/C=N/NC(=O)c3ccccc3)c(=O)[nH]c2=O)cc1,13,-17,1984,0,7,7,-4
COc1cccc(NC(=O)C2CCCN2C(=O)NC2CCCCC2)c1 (stereo not drawn),1.9,-27,3641,9,2,-7,2
